# From PubChem
# YopH PTP inh = blocks Yersinia enterocolitica YopH tyrosine phosphatase | AID 898 | inhibition, %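 (about 10 µM by stock and volumes)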 | fluorescence Ex485/Em525 | 140,000 tested, 0.16% active;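 active means inhibition of 50% or more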;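 further: controls were vehicle for no effect and minimum signal wells for full effect; inactives centre near -20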
# Arbovirus anti = blocks arbovirus infection | arbovirus infection cell-based antiviral screen | inhibition, % at 10 µM | 200,000 tested, 0.37% active;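 active means inhibition from about 30%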;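 further: bluetongue infection of BSR cells; cell survival read as ATP light after 72 h; 0% = infected wells without compound and 100% = uninfected wells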
# Mtb betalactam = beta-lactam sensitization of Mtb H37Rv; 330,000 tested, 0.27% active; M. tuberculosis H37Rv growth with meropenem, percent inhibition; hits of this screen are not shown here; inhibition, % at 25 µM; AID 434955;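 active means about 74% or more and at least 40 points above the plate without the antibiotic, then above 30% in a dose series; inconclusive means first-round hits that could not be retested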;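 further: growth measured after seven days incubation then overnight dye step; 0% = bacteria only wells and 100% = bacteria with antibiotic; twin plates without the antibiotic show which effects depend on it; some results filed as inactive read as strong as hits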
# RecA splice inh = inhibitors of M. tuberculosis RecA intein splicing; cell-free RecA intein splicing, fluorescence; inhibition, %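 (about 9 µM by stock and volumes)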; 290,000 tested, 0.75% active; in the data active means inhibition above about 30%; inconclusive means no clear call, values can overlap the other calls;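 further: 0% = vehicle wells and 100% = reference inhibitor control wells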
# Target sequence (P9WHJ3 whole entry, looked up, canonical isoform): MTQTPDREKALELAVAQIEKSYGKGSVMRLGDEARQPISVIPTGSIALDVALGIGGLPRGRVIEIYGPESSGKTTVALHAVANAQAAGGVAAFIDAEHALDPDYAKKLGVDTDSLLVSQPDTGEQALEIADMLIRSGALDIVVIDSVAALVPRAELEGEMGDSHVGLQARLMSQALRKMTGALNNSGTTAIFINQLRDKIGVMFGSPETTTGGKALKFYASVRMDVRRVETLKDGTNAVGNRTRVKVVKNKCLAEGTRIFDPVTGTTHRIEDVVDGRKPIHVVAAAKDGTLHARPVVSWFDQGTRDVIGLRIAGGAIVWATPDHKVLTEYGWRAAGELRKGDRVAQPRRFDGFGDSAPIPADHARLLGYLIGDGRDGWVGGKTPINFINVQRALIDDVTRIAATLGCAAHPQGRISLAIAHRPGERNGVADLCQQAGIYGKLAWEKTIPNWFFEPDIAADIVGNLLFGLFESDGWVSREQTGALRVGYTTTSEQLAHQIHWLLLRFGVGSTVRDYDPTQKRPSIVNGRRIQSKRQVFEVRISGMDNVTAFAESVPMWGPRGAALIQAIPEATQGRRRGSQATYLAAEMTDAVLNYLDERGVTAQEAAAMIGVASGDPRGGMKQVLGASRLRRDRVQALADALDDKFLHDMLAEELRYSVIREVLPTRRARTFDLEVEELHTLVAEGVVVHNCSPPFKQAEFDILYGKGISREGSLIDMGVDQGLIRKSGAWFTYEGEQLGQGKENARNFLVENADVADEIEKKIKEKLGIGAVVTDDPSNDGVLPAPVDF
# Mtb growth = M. tuberculosis H37Rv growth inhibitors, H37Rv strain (AID 1626). M. tuberculosis H37Rv growth inhibition; higher % means a stronger effect. inhibition, % at 10 µM; hits with a dose series show IC50 in µM. 220,000 tested, 0.95% active;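 active means confirmed in a dose series; inconclusive means inhibition above 80% but not taken into the dose series; inactive means below 80% or under 30% at every dose of the series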;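 further: bacteria incubated seven days before Alamar blue readout; 0% = bacteria only wells and 100% = bacteria with antibiotic wells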
# Arbovirus anti repeat = further read-out of Arbovirus anti, marked with its call; inhibition, %; measured here: 10K subset replicate screen; many hits read low in the repeat;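 first of two repeat runs on a subset; 0% = infected and 100% = uninfected wells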
# * hit, by the source's call; ? = inconclusive; / = no result given.
# Sample of the layout, 5 compounds:
SMILES,YopH PTP inh,Arbovirus anti,Mtb betalactam,RecA splice inh,Mtb growth,others
CC(C)C(c1nnnn1Cc1ccc(F)cc1)N1CCN(C(=O)c2ccco2)CC1 (stereo not drawn),-9,-5,1,1.1,0%,
C=CCN1CCN(C(=O)c2cc3c(s2)CCC(CC)C3)CC1 (stereo not drawn),/,/,1,4.8,/,
CCCc1cc(=O)oc2c(C)c(OCC(=O)NCCCN3CCOCC3)ccc12,/,/,-3,-0.4,/,
C/C(N)=C(\C#N)C(=O)NCc1ccccn1,-50,6,-1,-0.3,6%,
COCCSc1nnc(-c2cccc(C#N)c2)n1C,-21,2,-3,-0.1,-4%,

# This part in full, from the first entry:
SMILES,YopH PTP inh,Arbovirus anti,Mtb betalactam,RecA splice inh,Mtb growth,others
CC(C)C(c1nnnn1Cc1ccc(F)cc1)N1CCN(C(=O)c2ccco2)CC1 (stereo not drawn),-9,-5,1,1.1,0%,
C=CCN1CCN(C(=O)c2cc3c(s2)CCC(CC)C3)CC1 (stereo not drawn),/,/,1,4.8,/,
CCCc1cc(=O)oc2c(C)c(OCC(=O)NCCCN3CCOCC3)ccc12,/,/,-3,-0.4,/,
C/C(N)=C(\C#N)C(=O)NCc1ccccn1,-50,6,-1,-0.3,6%,
COCCSc1nnc(-c2cccc(C#N)c2)n1C,-21,2,-3,-0.1,-4%,
CN(C)S(=O)(=O)N1CCC(Oc2ccc(C(=O)N3C[C@H]4CC[C@H]3C4)cc2)CC1,/,/,-7,3.1,/,
COc1ccc(C(=O)Nc2sc(C)c(C)c2CN2CC(C)OC(C)C2)cc1 (stereo not drawn),-16,-5,1,3.0,-1%,
CCOc1ccc(S(=O)(=O)NCc2ccco2)cc1,1,3,1,0.9,14%,
O=C(O)/C(=C1/OC(=O)c2ccccc21)c1ccccc1,-45,-1,-3,0.7,-1%,
COCCNC(=O)/C(C#N)=C/c1ccc(C(=O)O)cc1,/,7,1,-2.1,8%,
CC(C)C(=O)NNC(=O)CSc1nc(C2CCCCC2)nc2ccccc12,-9,6,-3,-1.3,6%,
Cc1cc(C)c2c(c1)c(C)cc1nnc(SCC(=O)c3cccs3)n12,-51,2,-14,-0.5,4%,
CCc1ccc(C(=O)NNC(=O)CCc2nc3ccccc3c(=O)[nH]2)cc1,/,/,-11,0.9,/,
CCOC(=O)C1CCCCN1Cc1cc(Cl)ccc1O (stereo not drawn),-13,-4,-7,-0.2,-3%,Arbovirus anti repeat=5
C/C(=C\C(=O)c1ccccc1)NCc1ccc(F)cc1,1,-8,-5,2.9,-6%,
O=S(=O)(c1ccc(F)cc1)N1CCN(C(=S)NCC2CCCO2)CC1 (stereo not drawn),/,/,-1,-6.6,/,
COC(C(=O)Nc1ccccc1F)c1ccccc1 (stereo not drawn),-13,-3,-4,2.2,9%,
COc1ccc(Nc2nc(Cl)nc(Nc3ccc(OC)cc3)n2)cc1,/,-7,-1,-1.5,15%,
CCOc1cc(/C=N/NC(=O)CNc2ccc(C)cc2)ccc1OC(=O)c1ccccc1,-13,2,-7,4.1,7%,
CC(=O)Nc1ccc(C(=O)NCCc2ccccc2)cc1,-7,4,4,-0.5,8%,
CCCOc1ccc(CSc2nc3ccccc3[nH]2)cc1,2,11,95,-0.7,/,
O=S(=O)(CCN1CCSCC1)c1ccccc1,/,/,-4,-0.4,3%,
COc1cc(S(=O)(=O)NCc2ccc3c(c2)OCO3)c(OC)cc1C,/,/,-4,-2.5,/,
COc1ccc(N2CCN(c3ccc(N4C(=O)COCC4=O)cc3[N+](=O)[O-])CC2)cc1,-34,-20,-1,-6.4,-16%,
C=CCc1c(C)nc(-c2ccccc2)nc1N/N=C/c1ccncc1,/,-1,8,-2.4,3%,
# Carrying on:
SMILES,YopH PTP inh,Arbovirus anti,Mtb betalactam,RecA splice inh,Mtb growth,others
O=C(O)CCCCCNC(=O)Cn1nnc2ccccc2c1=O,/,/,-4,-3.1,-11%,
O=C(/C=C/c1ccccc1Cl)Nc1cccc(O)c1,/,-8,0,2.6,4%,
O=C(N/N=C/c1cccs1)c1cccnc1,/,/,-14,0.2,-5%,
COc1ccccc1N(CC(=O)NC1CCCC1)C(=O)C1(C)CC(=O)N=C2C=CC(C)=CN21 (stereo not drawn),/,/,-2,-1.5,/,
CCOC(=O)c1ccccc1NC(=O)c1ccc2c(SCC(=O)O)c3c(nc2c1)CCCC3,/,/,3,25,/,
O=C(NNc1nc(-c2ccc(Br)cc2)cs1)c1ccco1,/,-24,53,/,?,
Cc1ccc(C2N(c3cccc(Cl)c3)C(=O)N3CCCN23)cc1 (stereo not drawn),/,/,-9,4.6,19%,
Cc1ccc2[nH]c3c(c2c1)CN(C(=O)CN1CCN(c2ccccc2F)CC1)CC3,12,5,/,-12,17%,
C[C@H]1CCC(=O)N([C@H](CSc2ccccc2)Cc2ccccc2)CC1,/,/,-2,15,/,
Cc1onc(-c2ccccc2Cl)c1C(=O)O/N=C(\N)c1ccccc1,/,/,-8,1.2,/,
CCOC(=O)c1ccc(NC(=O)c2ccccc2)cc1,-11,5,15,1.0,4%,
O=Cc1c(-c2ccccc2)cc2oc3ccccc3cc1-2,/,/,4,3.1,/,
Cc1ccc(SC(C)C(=O)Nc2ccc(S(=O)(=O)N3CCOCC3)cc2)cc1 (stereo not drawn),-26,13,7,0.3,2%,
Clc1ccc(CSc2nnc(-c3ccc4c(c3)OCO4)o2)cc1,-19,9,69,2.3,19%,
Cc1c2cnn(CC(=O)NCCCN3CCCCC3)c(=O)c2c(C)n1Cc1ccccc1,/,/,-8,0.1,/,
CC(=O)Nc1ccc(C)c([N+](=O)[O-])c1,/,4,-10,-0.5,-21%,
CC(C)=CC(=O)OCC(=O)Nc1cc([N+](=O)[O-])ccc1F,-28,6,-2,-2.9,-4%,
O=C(COC(=O)c1cc(NS(=O)(=O)c2cccs2)ccc1O)Nc1ccc(F)c(F)c1F,/,5,-1,/,7%,
CCOc1ccc(C(C(=O)NC2CCCC2)N(C(=O)c2snc(C(N)=O)c2N)c2cccc(O)c2)cc1 (stereo not drawn),/,/,4,-1.1,/,
O=C(/C=C/Nc1ccc(OC(F)(F)F)cc1)C(F)(F)F,-17,-4,-2,0.3,-3%,
CCOC(=O)c1oc2ccc(S(=O)(=O)n3nc(-c4ccc(OC)cc4)cc3N)cc2c1C,-22,-21,2,2.7,/,
CCCN(CC(=O)Nc1ccc(C(N)=O)cc1)CC(=O)Nc1ccccc1C,/,5,-4,/,-4%,
CCS(=O)(=O)N1CCC(C(=O)NCc2ccc(OC)cc2OC)CC1,/,2,-3,-1.5,-5%,
CC(C)NC(=O)CN1CCN(C(=O)c2ccc3oc(CCCc4ccccc4)nc3c2)CC1,/,/,-4,3.6,/,
Cc1c(C(=O)N/N=C/c2cccnc2)sc(=S)n1C,-18,-5,0,-2.7,5%,
# Further results.
SMILES,YopH PTP inh,Arbovirus anti,Mtb betalactam,RecA splice inh,Mtb growth,others
Clc1ccc(SCc2cn3ccsc3n2)cc1,-11,-10,10,-3.7,13%,
Cc1nccc(-c2ccc3c(c2)OCO3)n1,/,2,4,-0.5,0%,
O=C(CSc1nnc2ccccn12)NC(=O)Cc1ccccc1,/,-4,-9,1.9,5%,
Clc1ccc(Sc2cc(N3CCOCC3)nc(-c3ccccc3)n2)cc1,-14,19,-11,-2.9,-4%,
Cn1ccnc1SCc1cccc([N+](=O)[O-])c1,/,/,-1,-0.5,/,
CCOC(=O)c1c(NC(=O)CSc2nnc(CNc3ccc(C)cc3C)o2)sc(C)c1C,8,6,75,0.9,-9%,
CC(C)n1c(SCC(N)=O)nc2c1c(=O)[nH]c(=O)n2C,-32,0,/,-0.3,-5%,
CC(Cc1ccccc1)NC(=O)c1cc([N+](=O)[O-])ccc1Cl (stereo not drawn),/,/,24,-1.8,16%,
CCN(CC)C(=O)CP(=O)(c1ccccc1)c1ccccc1,-42,4,-2,/,-5%,
COc1ccc(S(N)(=O)=O)cc1-c1nnc2c3ccccc3c(C)nn12,/,/,4,-2.4,/,
O=C(NCc1cccc(F)c1)c1noc2c1CCCC2,20,-9,-1,5.2,14%,Arbovirus anti repeat=-8
FC(F)(F)c1cc(-c2ccco2)nc(NCc2cccnc2)n1,-40,-3,-8,-0.4,/,
CC(=O)Nc1ccc(S(=O)(=O)N2CCC(C(=O)O)(c3ccccc3)CC2)cc1,/,/,0,-2.4,/,
CC(=O)N1CCN(C(=O)Cn2c(=O)oc3ccccc32)CC1,-7,-4,-6,-8.6,-9%,
CC(CCc1ccccc1)NC(=O)CSc1ccccn1 (stereo not drawn),/,4,0,-1.3,0%,
O=C(NCc1ccccc1C(F)(F)F)C1CCC(=O)N(C2CCCCCC2)C1 (stereo not drawn),/,/,-5,0.8,/,
O=C(NCCc1ccccc1)C1CCCN1C(=O)Nc1ccccc1 (stereo not drawn),/,/,-10,0.7,/,
O=[N+]([O-])c1cc([N+](=O)[O-])c(Oc2cc(Cl)ccc2Cl)cc1NC1CCCCCCC1,/,/,-6,-0.9,/,
CN(C(=O)c1cc2sccc2n1C)C1CCCCC1,-35,1,30,0.0,7%,
Cc1cc(O)ccc1Nc1nc(-c2sc(N)nc2C)cs1,9,16,-11,14,-5%,
COc1ccccc1NNC(=O)c1cc(C(C)(C)C)nn1Cc1ccccc1,/,/,-5,2.7,-14%,
O=C(CCc1nnc(CCC2CCCCC2)o1)NCc1ccon1,/,0,1,-0.6,7%,
CCN(CC)CCCn1c2c(c(SCC(=O)N3CCCc4ccccc43)nc1=O)CCC2,/,/,-5,-2.8,/,
O=C(Cn1cnc(S(=O)(=O)N2CCOCC2)c1)Nc1ccc(OC(F)(F)F)cc1,/,/,7,-2.2,/,
COc1cc(NC(=O)C(=O)N2CCN(C)CC2)c(OC)cc1Cl,/,/,3,-0.9,1%,

# Arranged by number of heavy atoms (low to high): three of the compounds above.
SMILES,YopH PTP inh,Arbovirus anti,Mtb betalactam,RecA splice inh,Mtb growth,others
CC(C)n1c(SCC(N)=O)nc2c1c(=O)[nH]c(=O)n2C,-32,0,/,-0.3,-5%,
O=C(CCc1nnc(CCC2CCCCC2)o1)NCc1ccon1,/,0,1,-0.6,7%,
COc1ccccc1NNC(=O)c1cc(C(C)(C)C)nn1Cc1ccccc1,/,/,-5,2.7,-14%,

# Next part:
SMILES,YopH PTP inh,Arbovirus anti,Mtb betalactam,RecA splice inh,Mtb growth,others
CC1CCN(S(=O)(=O)c2cc([N+](=O)[O-])ccc2Cl)CC1,/,-8,4,1.1,20%,
COC(=O)c1c(NC(=O)CN2CCCc3ccccc32)sc(C)c1C,-43,12,0,5.1,11%,
c1ccc(CNc2nc(NCc3ccco3)nc(N3CCOCC3)n2)cc1,/,9,6,-3.2,11%,
COc1ccccc1CNC(=O)C(=O)NCC1OCCN1C(=O)c1ccc(Cl)cc1 (stereo not drawn),/,/,-9,-0.2,-8%,
CC(Oc1ccc(Br)cc1)C(=O)Nc1nc(-c2ccccn2)cs1 (stereo not drawn),/,/,92,17,/,
COC(=O)c1cc(CNC(=O)c2ccccc2Cl)ccc1OC,-26,-1,8,-1.0,-1%,
Cc1ccn2c(-c3n[nH]c(=S)n3C)c(C)nc2c1,-23,9,-13,0.1,-2%,
Cn1c(=O)c2c(nc(SCC(=O)c3ccccc3F)n2C)n(C)c1=O,/,7,-5,5.3,-3%,
CN(CC(=O)O)S(=O)(=O)c1cc(Cl)ccc1Cl,-18,9,1,1.6,-5%,
c1ccc(-c2ccnc3nc(-n4cccc4)nn23)cc1,-27,-2,4,2.7,6%,
Cc1nnc(SCC(=O)Nc2nc3ccccc3s2)n(N)c1=O,-20,1,1,-0.2,2%,
COc1ccc(-c2c(-c3ccsc3)oc3ccc(N4CCOCC4)cc23)cc1,/,/,88,-1.1,39%,
COc1ccc(-c2nnc(SCC(=O)N3CCOCC3)o2)cc1,-19,0,20,-1.4,2%,
Cc1nn(-c2ccccc2)c2sc(C(=O)n3cccn3)cc12,/,1,-1,-2.3,-9%,Arbovirus anti repeat=-4
CCc1c(O)cc(=O)n(-c2ccccc2)c1-c1ccccc1,-14,9,12,0.7,6%,
COc1ccc(N(CC(=O)NC2CCCC2)C(=O)Cn2nnc(-c3ccc(C)cc3)n2)cc1OC,-39,-7,-16,-11,-2%,
CC1CCN(CC#CCOc2ccc(Cl)cc2)CC1,/,/,-8,1.6,/,
CCOC(=O)c1cc([N+](=O)[O-])sc1NC(=O)CC,/,-2,-2,-2.4,12%,
O=C(CSc1ncccn1)NC1CCCc2ccccc21 (stereo not drawn),/,6,-12,0.9,0%,
O=C(Nc1nnc(-c2ccccc2SCc2ccccc2)s1)Nc1ccccc1F,-33,-14,2,5.4,-6%,
COc1ccc(CCNCc2ccccc2F)cc1,/,/,2,0.5,/,
Cc1cc2oc(=O)cc(CN(C)Cc3cccc(F)c3)c2cc1C,/,/,5,4.6,/,
c1ccc(Cc2nn3c(Cn4cnc5ccccc54)nnc3s2)cc1,-12,-4,8,1.9,10%,
CCOC(=O)C(=O)C1=CN(Cc2ccccc2)C=C(C#N)C1,/,/,0,-4.0,/,

# An excerpt. The share of hits here may be higher or lower than overall.
